Screening data as filed in PubChem BioAssay.
PMP22 txn prim: PMP22 gene transcription modulation; S16 Pmp22-F2sN Schwann cells (luciferase reporters placed in the Pmp22 gene), FLuc/NLuc coincidence luminescence, 24 h; AID 1508649; Potency, µM (doses to about 57.5 µM), inactives show at the top dose activity change, negative = inhibition, usual class: inhibitors; 2% of 43,000 active; active = clear falling dose curves in both reporters; inconclusive = both reporters move, but less clearly or upward; inactive = either reporter flat; the % is the NLuc reporter signal; also: % is scaled to controls: 0 for no effect and ±100 for the full control effect; some results filed as inactive show a strong effect at the top dose
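Luminescent read-out of sequential FLuc and NLuc signals from a reporter embedded in the Pmp22 3' UTR of S16 Schwann cells, taken after 24 h compound exposure at 37C; compounds reducing both signals score as inhibitors of expression.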
HTT promoter inh: inhibits huntingtin promoter activity. HEK293 HTT promoter firefly luciferase reporter (activity 0% = vehicle and -100% = no light), 24 h. Potency, µM (highest dose often 57.5 µM), for the others: at the highest dose activity change, negative = inhibition, actives largely listed as inhibitors. 0.93% of 48,000 active. AID 1508623; active = well fitted inhibition curve with a large enough effect; inconclusive = small, poorly fitted or top-dose-only effect; inactive = no such curve, though single readings can be large or run the other way; also: nearly all actives have a fitted effect of over 50% in size
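HEK293 Fluc reporter, 2,500 cells/well, 24 h pre-culture; cpds up to 57.5 uM final, 24 h 37 degrees C; Dual-Glo, 10 min RT; normalized vehicle = 0%, zero RLU = -100%.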
* marks the source's active call; other numbers are inactive results; ? = inconclusive; . = not tested or not shown; [ ] = another dose, or the depositor's remark. Potency is read from the fitted curve at half-maximal effect.

mol | PMP22 txn prim | HTT promoter inh
COc1cccc(C2CC(=O)Nc3c2c(=O)[nH]c2ncnn32)c1OC (centres undefined) | -11% | -9%
N#Cc1cccc(NC(=O)Cn2nc(Cc3ccncc3)c3ccccc3c2=O)c1 | -19% | -26%
CCOc1ccc(NC(=O)c2cnn(-c3ccc(C)c(Cl)c3)c2C2CCNCC2)cc1 | -17% | -9%
Cc1ccc(NC(=O)C2CCCN(c3nnc(C)c4c(C)n(-c5ccccc5)nc34)C2)c(Cl)c1 (centres undefined) | ? | 10%
CCOC(=O)c1[nH]c2ccccc2c1NC(=O)c1ccc(OC(C)C)cc1 | -36% | 15%
Cc1nc2ccc(S(=O)(=O)N(CC(=O)Nc3cccc(F)c3)Cc3ccccc3)cc2s1 | -16% | -27%
O=C(COc1ccc(F)cc1)Nc1cccc(OCc2cc(=O)n3ccccc3n2)c1 | -7% | 58%[activator]
CSc1ccc(CCNC(=O)c2ccc3c(c2)nc2n3CCOC2)cc1 | ? | 2%
Cc1ccccc1Cn1c(=O)n(-c2ccc(Cl)cc2)c(=O)c2c3c(sc21)CCCC3 | -1% | -7%
Cc1c(C)n(Cc2ccc(F)cc2)c2ccc(C(=O)NCc3ccco3)cc12 | ? | -13%
CCOC(=O)c1[nH]c(C)c(CCC(=O)N2CCN(c3cccc(C)c3C)CC2)c1C | -13% | ?
CCOC(=O)c1c(C)oc2nc(C)nc(Nc3cc(C)ccc3OC)c12 | -5% | 15%
COC(=O)c1c(NC(=O)/C=C/c2ccc(OC)c(OC)c2)sc2c1CCC2 | ? | -7%
O=c1[nH]sc2cc(Cl)ccc12 | . | -36%
CCOc1ccc(NS(=O)(=O)c2ccc(C(=O)N(C)C)s2)cc1 | 11% | -53%
Cc1ccccc1Nc1sc(C(=O)c2ccc(F)cc2)c(N)c1C(=O)NCCc1ccccc1 | -98% | ?
COC(=O)c1c(NC(=O)c2ccc(S(=O)(=O)N(C)C3CCCCC3)cc2)sc2c1CCN(C)C2 | ? | ?
C=C(C)CSc1nc2sc3c(c2c(=O)n1-c1ccccc1)CCC(C)C3 (centres undefined) | -11% | -9%[11.5 µM]
Cc1ccc(N2CCN(C(=O)Cn3ncc4c([nH]c5ccc(C)cc54)c3=O)CC2)c(C)c1 | 1% | 7%
Cc1ccc(-n2c(=O)c3c(c4cc(C)ccc4n3C)n(CC(=O)NCc3ccccc3Cl)c2=O)cc1 | 3% | -1%
Cc1cc(C)c2c(c1)NC(=O)C2(O)c1c[nH]c2ccccc12 (centres undefined) | -30% | -14%
CC(=O)Nc1ccc(Nc2nnc(-c3ccc(C)c(S(N)(=O)=O)c3)c3ccccc23)cc1 | -1% | -12%
O=C(Cn1c(=O)n(-c2ccccc2)c(=O)c2ccc(C(=O)NCc3ccc4c(c3)OCO4)cc21)Nc1ccc(Br)cc1F | ? | -7%
Cc1ccc(NC(=O)c2ccc3[nH]c(C)cc(=O)c3c2)cc1 | 0% | 1%
N#Cc1c(-n2ncnc2-c2ccc(F)cc2)sc2c1CCCCC2 | -11% | ?
COc1ccc(Cl)cc1NC(=O)Cn1c(=O)n(Cc2ccc(F)cc2)c(=O)c2cccnc21 | -20% | -25%
Clc1ccc(CN2CCc3nc(N4CCN(c5ccccn5)CC4)ncc3C2)cc1 | -51% | ?
COc1cccc2cc(-c3nc(-c4cccs4)no3)c(=O)oc12 | -4% | 1%
Cc1ccc(C)c(N2CCN(c3cc(C)nc4c(-c5ccc(Cl)cc5)c(C)nn34)CC2)c1 | 3% | -19%
O=C(CSc1nc2ccccc2n1CC(=O)Nc1ccc(F)cc1F)Nc1ccc(F)cc1 | 47% | -20%

A run of entries taken from the entries so far, as a working copy:
mol | PMP22 txn prim | HTT promoter inh
C=C(C)CSc1nc2sc3c(c2c(=O)n1-c1ccccc1)CCC(C)C3 (centres undefined) | -11% | -9%[11.5 µM]
Cc1ccc(N2CCN(C(=O)Cn3ncc4c([nH]c5ccc(C)cc54)c3=O)CC2)c(C)c1 | 1% | 7%
Cc1ccc(-n2c(=O)c3c(c4cc(C)ccc4n3C)n(CC(=O)NCc3ccccc3Cl)c2=O)cc1 | 3% | -1%
Cc1cc(C)c2c(c1)NC(=O)C2(O)c1c[nH]c2ccccc12 (centres undefined) | -30% | -14%
CC(=O)Nc1ccc(Nc2nnc(-c3ccc(C)c(S(N)(=O)=O)c3)c3ccccc23)cc1 | -1% | -12%

Carrying on.
mol | PMP22 txn prim | HTT promoter inh
COC(=O)CNC(c1ccccc1)c1cc(Br)ccc1NC(=O)c1cc(OC)c(OC)c(OC)c1 (centres undefined) | -24% | -14%
Cc1ccc(OC(=O)c2cc(-c3ccc(Cl)cc3)on2)c(C)c1 | -7% | -6%
Cc1ccc(CN2CCCn3nc(C(=O)NCCc4ccc(Cl)cc4)cc3C2=O)cc1 | 4% | ?
CCc1ccc(NC(=O)CSc2nc3n[nH]c(C)c3c(=N)n2-c2ccccc2C)cc1 | ? | ?
COc1ccc(NC(=O)c2nc(S(=O)(=O)Cc3ccc(C)cc3)ncc2Cl)cc1 | 11µM* | 24%
Cn1nnnc1SCCCNCc1ccccc1OCc1ccc(F)cc1 | ? | -33%
CCOc1ccccc1NC(=O)c1nn(-c2ccc(C)cc2)c(=O)n(C)c1=O | -44% | -12%
Cc1ccc(S(=O)(=O)Nc2nc3ccccc3nc2Nc2ccc3nsnc3c2)cc1 | . | -22%[25.2 µM]
CC(Sc1nc2c(c(=O)[nH]1)CCCC2)C(=O)Nc1cc(C(F)(F)F)ccc1Cl (centres undefined) | 4% | -12%
CCOc1ccccc1NC(=O)c1c(NC(=O)Cc2ccccc2)sc2c1CCCC2 | 7% | -5%
Cc1ccc(NS(=O)(=O)c2ccc3c(c2)NC(=O)C(C)C(=O)N3)cc1F (centres undefined) | 0% | -29%
COc1ccc(CCNC(=O)C(C)n2c(=O)cc(-c3ccccc3)c3c(C)nn(C)c32)cc1OC (centres undefined) | ? | -1%
COc1cccc(CNC(=O)C2CCN(S(=O)(=O)c3ccc4c(c3)CCCN4C(C)=O)CC2)c1 | 4% | -9%
CCC(=O)Nc1cc(-c2nc3ccccc3s2)c(Cl)cc1Cl | 2% | -5%
COc1ccccc1NC(=O)Cn1ccn(-c2cc(C)cc(C)c2)c(=O)c1=O | 4% | -6%
CCOc1cc(CNC(=O)c2ccc3c(c2)NC(=O)C2CCCCN32)cc(OCC)c1OCC (centres undefined) | 21% | -9%
O=C(Nc1ccc(N2CCOCC2)c(C(=O)O)c1)c1ccc(Br)cc1 | -2% | -2%
CCN(CC)S(=O)(=O)c1ccc2c(c1)N(CC(=O)NCc1ccc(F)cc1)C(=O)CO2 | -13% | -15%
CCOCCCN(Cc1ccco1)S(=O)(=O)c1cc2c(cc1Cl)NC(=O)CO2 | ? | -7%
COc1ccc(OC)c(CNCc2c(C(=O)O)n(Cc3ccccc3)c3cc(OC)ccc23)c1 | -4% | -11%
CCc1ccc(-n2nc(C)c3c(C(=O)Nc4cc(C)ccc4C)cc(C)nc32)cc1 | ? | -11%
Cc1c(Cl)ccc2sc(NC(=O)c3ccc(S(=O)(=O)N4CCCc5ccccc54)cc3)nc12 | -17% | -16%
CCOc1ccc(-c2nc(Cn3c(=O)cc(-c4ccccc4)c4c(C)nn(C)c43)c(C)o2)cc1 | 4% | 26%
CC(C)Oc1ccc(CNC(=O)c2ccc(Cn3c(=O)c4cccn4c4cccnc43)cc2)cc1 | -3% | 8%
CC(=O)Nc1cccc(NC(=O)CSc2nccn2Cc2ccco2)c1 | -45% | ?
O=C(Nc1ccc(Cl)cc1)N1CCN(c2ccc3nnc(-c4ccc(F)cc4)n3n2)CC1 | ? | 0%
CN1[C@@H]2CC[C@H]1CC(OC(=O)c1c[nH]c3ccccc13)C2 (some centres undefined) | . | -5%
COc1ccc(S(=O)(=O)c2c(Nc3ccc(F)cc3)sc(C(=O)c3ccc4c(c3)OCO4)c2N)cc1 | -9% | ?
CCCCCCCCCCCCCCCCC(C(=O)O)C(O)(CC(=O)O)C(=O)O (centres undefined) | . | 12%
COc1ccc(C(=O)Nc2cccc(-c3cn4ccsc4n3)c2)c(OC)c1 | ? | 40%[activator]

2 compounds picked at random from those above:
mol | PMP22 txn prim | HTT promoter inh
CSc1ccc(CCNC(=O)c2ccc3c(c2)nc2n3CCOC2)cc1 | ? | 2%
Cc1ccccc1Cn1c(=O)n(-c2ccc(Cl)cc2)c(=O)c2c3c(sc21)CCCC3 | -1% | -7%

(next part)
mol | PMP22 txn prim | HTT promoter inh
Cc1c(CNC(C)c2ccccc2)c(C(=O)O)c(C)n1Cc1c(F)cccc1Cl (centres undefined) | -16% | -17%
CCOC(=O)c1ccc(OCC2c3cc(OC)c(OC)cc3CCN2C(=O)c2ccc(S(=O)(=O)N3CCCC3)cc2)cc1 (centres undefined) | -5% | -14%
COc1ccc(-n2nc(C(=O)Nc3ccc(C)cn3)c3c4ccccc4n(C)c3c2=O)cc1 | -21% | -20%
COc1ccc(-c2ccc3c(N4CCOCC4)nc(N4C[C@@H](C)O[C@@H](C)C4)nc3n2)cc1CO | . | ?
CCOc1ccc(NC(=O)c2cnc3ccccn3c2=O)cc1 | 5% | 31%[activator]
Cc1ccc(C(=O)NCCc2ccc(S(N)(=O)=O)cc2)cc1-n1cnc2cccnc21 | -18% | 5%
CC(C)CCn1c(=O)c2sccc2n2c(CCCC(=O)NCc3ccc(F)cc3)nnc12 | -16% | -24%
O=C(CN1CCN(c2ccc(Cl)cc2)CC1)Nc1ccc(Cl)c(C(F)(F)F)c1 | -33% | -17%
CC1CCCN(Cc2nc3c(c(=O)n(C)c(=O)n3C)n2Cc2ccc(Cl)cc2)C1 (centres undefined) | -12% | -5%
O=C(CN1C(=O)C2(SCC(=O)N2c2ccc(F)cc2)c2ccccc21)NC1CCCCC1 (centres undefined) | -8% | -14%
Cc1ccc(-n2c(=O)c3ccc(C(=O)NCc4ccco4)cc3n(CC(=O)Nc3ccc(C)c(F)c3)c2=O)cc1 | ? | -12%
COc1ccc(CNC(=O)c2cnn(-c3ccc(OC)cc3)c2C2CCN(C(=O)OC(C)(C)C)CC2)cc1 | ? | -27%
Cc1ccc(OCC(=O)Nc2ccc3nc(SCC(=O)N(C)c4ccccc4)sc3c2)cc1 | ? | ?
CSCCC(NS(=O)(=O)c1ccc2c(c1)oc(=O)n2C)C(=O)Nc1ccc(Cl)cc1 (centres undefined) | 0% | -12%
O=C(CCOc1ccccc1)N(Cc1cccnc1)c1nc2ccc(F)cc2s1 | 13µM* | 19%
Cn1c(=O)c2cc(C(=O)N3CCN(c4ccc(Cl)cc4)CC3)sc2c2ccccc21 | 3% | -5%
O=C(Nc1nnc(S(=O)(=O)N2CCCC2)s1)c1ccccc1Cl | 18% | -2%
COc1ccc(-c2nnc(SCC(=O)Nc3cccc(Cl)c3C)nc2-c2ccc(OC)cc2)cc1 | 3% | -2%
Cc1ccc(CNS(=O)(=O)c2ccc3[nH]c4c(c3c2)CCCCC4)cc1 | -27% | ?
Cc1c(C(=O)Nc2ccc(Br)cc2F)oc2ccc(S(=O)(=O)N3CCC4(CC3)OCCO4)cc12 | ? | -15%
O=C(NCC1(c2ccccc2)CCCC1)C(=O)Nc1cccc(Br)c1 | -14% | 1%
O=c1cc(CSc2n[nH]c(-c3ccccc3)n2)[nH]c2ccccc12 | -24% | ?
Cc1nn2c(C)c(C(=O)N3CCN(c4ccc(Cl)cc4)CC3)cnc2c1-c1ccc(F)cc1 | 10% | -12%
COc1ccc(CCC(=O)NCc2ccc3c(c2)CCN3C(=O)c2ccc(C)cc2)cc1 | -26% | ?
COc1cccc(CNC(=O)CN(C)S(=O)(=O)c2ccc3c(c2)c(=O)n(C)c(=O)n3C)c1 | -4% | -9%
COc1ccc(NC(=O)c2ccc3c(=O)n4nc(Nc5ccccc5C)sc4nc3c2)cc1Cl | 11µM* | -7%
COc1ccccc1NC(=O)N(Cc1nnc2n1CCCCC2)c1ccc(F)cc1 | 1% | -10%
COc1cc(OC)nc(O[C@H](C(=O)O)C(OC)(c2ccccc2)c2ccccc2)n1 | . | 3%
CCc1nnc(SCC(=O)N(CC)c2ccccc2)c2cc3oc(C)cc3n12 | -27% | 0%
O=C(Cn1c(=O)c2cccn2c2cccnc21)NCc1cccc(F)c1 | 14% | 2%
Cc1cccc(N2CCN(c3ccc(NC(=O)c4ccccc4)cc3C(=O)O)CC2C)c1 (centres undefined) | 22% | -10%
CCc1ccc(CNC(=O)Cn2ccc3cc(S(=O)(=O)N4CCCCCC4)ccc32)cc1 | -30% | ?
Cc1ccc(Sc2c(C)nn(C(C)(C)C)c2OC(=O)C(C)(C)C)cc1 | -51% | -10%

Structures from the list above containing a CF3 group (two):
mol | PMP22 txn prim | HTT promoter inh
CC(Sc1nc2c(c(=O)[nH]1)CCCC2)C(=O)Nc1cc(C(F)(F)F)ccc1Cl (centres undefined) | 4% | -12%
O=C(CN1CCN(c2ccc(Cl)cc2)CC1)Nc1ccc(Cl)c(C(F)(F)F)c1 | -33% | -17%
